High-throughput results (PubChem)
MLL AF4-AF9 inh = inhibitors of AF4 peptide binding to AF9, primary screen, biochemical, AlphaScreen, biotin-AF4 peptide, FLAG-AF9, single point; AID 651704, 2012; Protein AF-9 (Homo sapiens), P42568; inhibition, % at 10 µM; actives 0.47% (n = 350,000);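 active = every replicate reaching a set inhibition limit, whatever the replicate mean, cut at about 25% in these data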;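 also: 0% = plate neutral control median and 100% = total signal loss; the record names both 10 and 1 µM as test concentration; the first replicate is given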
Target sequence (P42568 whole entry, looked up): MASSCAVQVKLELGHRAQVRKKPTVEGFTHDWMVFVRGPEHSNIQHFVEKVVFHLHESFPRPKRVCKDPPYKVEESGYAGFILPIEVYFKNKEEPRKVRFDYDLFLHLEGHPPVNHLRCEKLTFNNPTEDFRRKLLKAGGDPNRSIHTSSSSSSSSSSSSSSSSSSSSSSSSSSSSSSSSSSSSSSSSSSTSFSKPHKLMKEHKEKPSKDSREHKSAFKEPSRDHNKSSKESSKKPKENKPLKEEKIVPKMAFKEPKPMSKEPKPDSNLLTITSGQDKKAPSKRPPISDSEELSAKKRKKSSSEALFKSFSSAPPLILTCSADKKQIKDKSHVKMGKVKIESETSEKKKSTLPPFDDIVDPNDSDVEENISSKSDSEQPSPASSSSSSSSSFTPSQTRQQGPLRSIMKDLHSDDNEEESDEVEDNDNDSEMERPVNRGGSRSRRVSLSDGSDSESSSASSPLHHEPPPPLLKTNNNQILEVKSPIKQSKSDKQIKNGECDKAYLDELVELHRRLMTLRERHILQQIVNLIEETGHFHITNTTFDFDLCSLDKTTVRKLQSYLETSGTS
The depositor's hits bear a star.

SMILES	MLL AF4-AF9 inh
CC[C@]12c3[nH]c4cc(-c5ccco5)ccc4c3CCN1C(=O)[C@@H](CC(=O)NCc1ccco1)C[C@@H]2C(=O)N1CCN(C(=O)C2CC2)CC1	0.1
Cc1nn(C)cc1NC(=O)C[C@H]1CC[C@H]2[C@H](COc3ccc(NC(=O)NC(C)C)cc3C(=O)N2C)O1	-1.2
Cc1noc(C)c1NC(=O)N(C)C[C@H]1Oc2ccc(NC(=O)CCC(F)(F)F)cc2C(=O)N([C@@H](C)CO)C[C@@H]1C	-1.7
Cc1noc(C)c1NC(=O)N(C)C[C@H]1OCCCC[C@H](C)Oc2ccc(NC(=O)Nc3ccc(C(F)(F)F)cc3)cc2C(=O)N([C@H](C)CO)C[C@@H]1C	2.2
C[C@@H]1CCCCO[C@@H](CN(C)C(=O)Nc2ccc3c(c2)OCO3)[C@H](C)CN([C@@H](C)CO)C(=O)c2cc(NC(=O)CCCN(C)C)ccc2O1	3.9
CC(C)NC(=O)Nc1ccc2c(c1)C(=O)N([C@H](C)CO)C[C@H](C)[C@H](CN(C)Cc1ccc(C(F)(F)F)cc1)OCCCC[C@@H](C)O2	-1.9
C[C@H]1CCCCO[C@H](CN(C)Cc2ccccc2)[C@@H](C)CN([C@@H](C)CO)C(=O)c2cc(NS(=O)(=O)c3cccs3)ccc2O1	1.6
Cc1noc(C)c1NC(=O)Nc1ccc2c(c1)C(=O)N([C@@H](C)CO)C[C@H](C)[C@H](CN(C)CC1CCCCC1)OCCCC[C@@H](C)O2	2.6
CCc1nc2ccc(C(=O)N3CCN(S(=O)(=O)CC)CC3)cn2c1N(CC)CCN(C)C	-6.4
CN1C(=O)c2cc(NC(=O)Nc3ccc(Cl)cc3)ccc2OC[C@H]2O[C@H](CC(=O)O)CC[C@H]21	-1.9
CC(C)NC(=O)N(C)C[C@H]1OCCCC[C@H](C)Oc2ccc(NC(=O)C3CCCCC3)cc2C(=O)N([C@H](C)CO)C[C@@H]1C	-3.3
COc1ccc(NC(=O)Nc2ccc3c(c2)CC(=O)N([C@@H](C)CO)C[C@H](C)[C@@H](CN(C)S(=O)(=O)c2cn(C)cn2)O3)cc1	-1.0
C[C@@H]1CN([C@H](C)CO)C(=O)Cc2cc(NC(=O)CCCN(C)C)ccc2O[C@H]1CN(C)C	-5.6
CNC(=O)C[C@@H]1CC[C@H]2[C@@H](COC[C@@H](O)CN2Cc2ccc(C(F)(F)F)cc2)O1	-5.4
CC[C@H]1O[C@H](C)CC2=C1C(=O)OC(C)(C)O2	-1.6
CC=Cc1ccc2n(c1=O)C[C@@H]1[C@@H](CO)[C@H](C(=O)N[C@H](C)c3ccccc3)[C@H]2N1CC1CC1 (mixture of isomers)	-0.9
O=C(c1cnccn1)N1CC(=O)N2[C@H](C1)[C@@H](c1ccc(C#CC3CCCC3)cc1)[C@@H]2CO	5.7
COc1cccc(CNC(=O)[C@H]2CCCN2C(=O)[C@H]2CCCN2C(=O)OC(C)(C)C)c1	-1.4
Cc1ccc(S(=O)(=O)N(C)C[C@@H]2OCCCC[C@H](C)Oc3ccc(NS(=O)(=O)c4ccccc4)cc3C(=O)N([C@@H](C)CO)C[C@@H]2C)cc1	2.2
C[C@H]1CN([C@@H](C)CO)C(=O)c2cc(NC(=O)CCN3CCOCC3)ccc2O[C@H]1CN(C)S(=O)(=O)c1ccccc1	-0.1
C[C@@H]1CCCCO[C@H](CN(C)C(=O)Nc2cccc3ccccc23)[C@H](C)CN([C@H](C)CO)C(=O)c2cc(NS(=O)(=O)c3ccc(F)cc3)ccc2O1	1.2
CCCNC(=O)C1(C)CCN(Cc2cc(C)n(C)n2)C1 (centres undefined)	-1.8
O=C(C[C@H]1CC[C@@H](NS(=O)(=O)c2ccc(F)cc2)[C@H](CO)O1)NCc1ccc(Cl)c(Cl)c1	-1.0
C[C@H](CO)N1C[C@H](C)[C@@H](CN(C)S(=O)(=O)c2ccc(Cl)cc2)Oc2ccc(NS(=O)(=O)c3cn(C)cn3)cc2C1=O	-1.1
C[C@@H]1CN([C@@H](C)CO)C(=O)c2cc(C#CCN(C)C)cnc2O[C@H]1CN(C)C(=O)Cc1cccnc1	-4.2
Next section.
SMILES	MLL AF4-AF9 inh
COC(=O)c1ccc2nc(-c3ccc(OC)c(OC)c3)c(Cc3ccc(OC)cc3C)n2c1	3.8
O=C(CNC(=O)c1cccc(S(=O)(=O)N2CCc3ccccc32)c1)Nc1ccccc1Br	-1.5
N#Cc1ccc(-c2ccc3c(c2)[C@@H]2[C@@H](CCN2Cc2ccc4c(c2)OCO4)[C@@H](CO)N3)cc1	-2.6
COc1cccc(NC(=O)N2CC3(C2)[C@@H](c2ccccc2)[C@@H](CO)N3C(=O)C2CCCC2)c1	0.9
C[C@@H]1CN([C@@H](C)CO)C(=O)Cc2cc(NS(=O)(=O)c3ccc(F)cc3)ccc2O[C@@H]1CN(C)Cc1ccc(Oc2ccccc2)cc1	-0.2
COCC(=O)N1CC(=O)N2[C@@H](CO)[C@@H](c3ccc(C#Cc4cccnc4)cc3)[C@@H]2C1	-2.4
C/C=C/c1ccc([C@H]2[C@@H](CO)N(C(C)=O)[C@H]2CN(C)C(=O)c2ccccn2)cc1	-0.6
CCO[C@H]1OC(C(=O)N2CCCC2)=C[C@@H](c2ccc(Br)cc2)[C@@H]1CCCO	-3.7
CN1C(=O)c2cc(NC(=O)C3CCOCC3)ccc2OC[C@@H]2O[C@@H](CC(=O)NCc3ccc4c(c3)OCO4)CC[C@@H]21	-1.7
C[C@@H]1CN([C@@H](C)CO)C(=O)c2cccc(NS(=O)(=O)c3cccs3)c2O[C@H]1CN(C)Cc1ccc(Oc2ccccc2)cc1	6.1
Cn1cnc(S(=O)(=O)N[C@H]2C=C[C@@H](CC(=O)Nc3ccc(-c4ccccc4)cc3)O[C@H]2CO)c1	1.5
C[C@@H]1CCCCO[C@@H](CN(C)S(=O)(=O)c2ccccc2)[C@H](C)CN([C@@H](C)CO)C(=O)c2cc(NS(=O)(=O)c3cn(C)cn3)ccc2O1	3.1
CC=Cc1ccc2n(c1=O)C[C@H]1[C@H](CO)[C@@H](C(=O)NC3CCCC3)N(Cc3ccncc3)[C@@H]21 (mixture of isomers)	-2.1
COc1ccc(NC(=O)N[C@H]2CC[C@H](CCn3cc(-c4ccccc4F)nn3)O[C@H]2CO)cc1	-1.0
O=S(=O)(NCC[C@H]1CC[C@@H](NS(=O)(=O)c2cccc(F)c2)[C@@H](CO)O1)c1cccc(F)c1	0.9
COc1ccccc1-c1cnc2c(c1)C(=O)N([C@H](C)CO)C[C@H](C)[C@@H](CN(C)CC1CCOCC1)O2	-1.3
C[C@@H]1CCCCO[C@@H](CN(C)CC2CC2)[C@H](C)CN([C@H](C)CO)C(=O)c2cc(NS(C)(=O)=O)ccc2O1	-4.9
COc1ccc(S(=O)(=O)Nc2cccc3c2O[C@@H](CN(C)C(=O)Nc2ccc(F)cc2)[C@@H](C)CN([C@@H](C)CO)C3=O)cc1	1.4
COC(=O)[C@]12C[C@H](CC(=O)N3CCCC3)C(=O)N(Cc3ccc4c(c3)OCO4)C1=C[C@H](C(C)(C)C)O[C@@H]2C	0.4
Cc1cc(=O)c2c(o1)C(=O)c1occc1C2=O	-7.4
C[C@H]1CN([C@@H](C)CO)C(=O)c2cc(C#CC3(O)CCCC3)cnc2O[C@@H]1CN(C)Cc1cncnc1	-1.7
CC(=O)N1[C@H](C(=O)Nc2ccccc2)[C@@H](CO)[C@@H]2Cn3c(ccc(C4=CCCC4)c3=O)[C@@H]21	-19
O=C(/C=C/c1ccc(Cl)cc1)OCC(=O)c1ccc[nH]1	-0.4
O=C(C[C@H]1CC[C@H]2[C@@H](COC[C@@H](O)CN2C(=O)Nc2ccc(F)cc2)O1)NCC1CC1	2.1
CNC[C@H]1Oc2ccc(NS(=O)(=O)c3cn(C)cn3)cc2C(=O)N([C@H](C)CO)C[C@@H]1C	-3.1
Next entries:
SMILES	MLL AF4-AF9 inh
CCOC(=O)C1(C)CCCN(C(=O)c2ccc(C)c(F)c2)C1 (centres undefined)	-0.9
COc1cccc(S(=O)(=O)N[C@H]2CC[C@@H](CCNC(=O)Cc3ccncc3)O[C@@H]2CO)c1	-0.5
CC(C)(C)n1nc(C2CC2)c(Br)c1NC(=O)c1ccccc1F	-3.9
Cc1noc(C)c1-c1ccc(C(=O)Nc2ccccc2)c2occc12	0.5
C[C@H](CO)N1C[C@H](C)[C@H](CN(C)Cc2cccc(F)c2)Oc2ncc(C3=CCCCC3)cc2C1=O	0.6
O=C(C[C@H]1CC[C@H]2[C@@H](COC[C@@H](O)CN2Cc2cccc(C(F)(F)F)c2)O1)NCc1ccc(F)cc1	0.5
COc1cc(OC)c(CNS(=O)(=O)c2ccc(Br)cc2)c(OC)c1	0.7
CC(=O)Nc1ccc(NC(=O)c2ccc(-c3ccnn3C)c3ccoc23)cc1	-1.1
CCOC(=O)n1cnc2nc(N)nc(SC)c21	-1.7
COc1cccc(S(=O)(=O)N2[C@@H]3CNC[C@H]2C3c2ccc(-c3ccccc3F)cc2)c1 (some centres undefined)	-2.3
CN(C)c1ccc2c(c1)[C@H]1C[C@H](CC(=O)NCc3ccccn3)O[C@H](CO)[C@H]1O2	-0.2
C[C@H](O)C#Cc1ccc([C@H]2[C@@H](CO)N3CCCCN(CC4CCOCC4)C[C@H]23)cc1	5.0
COc1cccc(/C=C2/SC(=S)N(CC(=O)Nc3nnc(C)s3)C2=O)c1	3.1
C[C@H]1CN([C@@H](C)CO)S(=O)(=O)c2ccc(C#Cc3ccccc3)cc2O[C@@H]1CN(C)C(=O)Cc1ccccn1	3.0
C[C@@H]1CCCCO[C@H](CN(C)C(=O)CCC(F)(F)F)[C@@H](C)CN([C@H](C)CO)C(=O)c2cc(NC(=O)Nc3ccccc3)ccc2O1	-5.0
C[C@@H]1CCCCO[C@@H](CN(C)Cc2ccc3c(c2)OCO3)[C@H](C)CN([C@@H](C)CO)C(=O)c2cc(NC(=O)Nc3ccc4c(c3)OCO4)ccc2O1	22
O=C(Nc1ccccc1)N[C@@H]1CC[C@@H](CCn2cc(-c3ccccc3F)nn2)O[C@@H]1CO	-3.0
COc1ccc(S(=O)(=O)NC(C(=O)OCC(=O)Nc2ccc(N3CCOCC3)cc2)C(C)C)cc1 (centres undefined)	-2.3
CCCC(=O)N1CCCC1(C)C(=O)NCCc1ccccn1 (centres undefined)	-1.3
C[C@@H]1CN([C@H](C)CO)C(=O)c2cccc(NC(=O)c3nc4ccccc4s3)c2O[C@H]1CN(C)Cc1ccc(Oc2ccccc2)cc1	-8.5
O=C(CCCCCN1C(=O)c2cccc([N+](=O)[O-])c2C1=O)NCCc1ccccc1	0.4
O=C1NC[C@@H](CCCCN2C[C@H](Cc3ccc(O)cc3)N(Cc3ccccc3)C(=O)C2=O)N(CCc2ccc(O)cc2)C1=O	-0.2
COCCNc1nc(NCCNC(C)=O)c2sc(-c3ccccc3)cc2n1	-2.8
C[C@@H]1CN([C@@H](C)CO)C(=O)c2cc(NS(=O)(=O)c3ccccc3)ccc2O[C@@H]1CN(C)C(=O)Nc1ccc(F)cc1	-1.7
COc1ccc(NC(=O)N(C)C[C@H]2Oc3ccc(NS(=O)(=O)c4ccc(F)cc4)cc3C(=O)N([C@H](C)CO)C[C@H]2C)cc1	-2.2

10 structures out of the list, ordered by count of non-hydrogen atoms, smallest number first.
SMILES	MLL AF4-AF9 inh
CCOC(=O)C1(C)CCCN(C(=O)c2ccc(C)c(F)c2)C1 (centres undefined)	-0.9
CN(C)c1ccc2c(c1)[C@H]1C[C@H](CC(=O)NCc3ccccn3)O[C@H](CO)[C@H]1O2	-0.2
O=C(CCCCCN1C(=O)c2cccc([N+](=O)[O-])c2C1=O)NCCc1ccccc1	0.4
O=C(Nc1ccccc1)N[C@@H]1CC[C@@H](CCn2cc(-c3ccccc3F)nn2)O[C@@H]1CO	-3.0
C[C@H](CO)N1C[C@H](C)[C@H](CN(C)Cc2cccc(F)c2)Oc2ncc(C3=CCCCC3)cc2C1=O	0.6
O=C(C[C@H]1CC[C@H]2[C@@H](COC[C@@H](O)CN2Cc2cccc(C(F)(F)F)c2)O1)NCc1ccc(F)cc1	0.5
C[C@H]1CN([C@@H](C)CO)S(=O)(=O)c2ccc(C#Cc3ccccc3)cc2O[C@@H]1CN(C)C(=O)Cc1ccccn1	3.0
C[C@@H]1CN([C@@H](C)CO)C(=O)c2cc(NS(=O)(=O)c3ccccc3)ccc2O[C@@H]1CN(C)C(=O)Nc1ccc(F)cc1	-1.7
COc1ccc(NC(=O)N(C)C[C@H]2Oc3ccc(NS(=O)(=O)c4ccc(F)cc4)cc3C(=O)N([C@H](C)CO)C[C@H]2C)cc1	-2.2
C[C@@H]1CCCCO[C@H](CN(C)C(=O)CCC(F)(F)F)[C@@H](C)CN([C@H](C)CO)C(=O)c2cc(NC(=O)Nc3ccccc3)ccc2O1	-5.0

New compounds follow.
SMILES	MLL AF4-AF9 inh
C[C@@H]1CN([C@H](C)CO)C(=O)c2cc(NS(=O)(=O)c3ccc(F)cc3)ccc2O[C@@H](C)CCCCO[C@@H]1CN(C)Cc1ccccc1	5.9
C[C@@H]1CN([C@@H](C)CO)C(=O)c2cc(NC(=O)NC3CCCCC3)ccc2O[C@H]1CN(C)C(=O)Nc1cccc2ccccc12	-4.2
O=C(C[C@H]1CC[C@H](NC(=O)Nc2cc(F)ccc2F)[C@@H](CO)O1)NCCCN1CCOCC1	-1.1
COc1cccc(NC(=O)N2C[C@H](O)COC[C@H]3O[C@@H](CC(=O)NC4CCCC4)CC[C@@H]32)c1	-0.8
COc1ccc(CN(C)C[C@@H]2Oc3ccc(NC(=O)CCN4CCOCC4)cc3CC(=O)N([C@H](C)CO)C[C@H]2C)cc1	0.1
CCOC1=C2CN(S(=O)(=O)c3ccc(C)cc3)[C@@H](c3ccccc3)C[C@H]2[C@H]2C(=O)N(c3ccccc3)C(=O)[C@H]2C1	1.8
CC(=O)N[C@H]1CC[C@@H](CC(=O)NCc2ccc(Cl)cc2)O[C@H]1CO	-9.8
O=C(NCc1ccccc1Cl)[C@H]1CCCN1C(=O)[C@H]1CCCN1C(=O)c1ccccc1	-4.3
COc1ccccc1NC(=O)N1CCCCN2[C@H](CO)[C@H](c3ccc(C#Cc4ccccc4)cc3)[C@@H]2C1	-4.4
CO[C@@H]1CN(C)C(=O)c2cc(NC(=O)C3CC3)ccc2OC[C@H](C)N(C(=O)c2ccccc2F)C[C@H]1C	0.6

These rows are one share of the data; count on the stated rates, not on these rows.
